TRPML1 blocker: human mucolipin-1 channel inhibition; activity change, negative = inhibition, % (concentration not given with the values); TRPML1-inducible cells, Ca2+ dye fluorescence, FDSS; active compounds read low; inhibition of EC80 agonist-evoked calcium signal; 0.02% of 390,000 active; AID 624415; Q9GZU1; in the data active means activity change below about -50%; inconclusive means about -30% to -50%; inactive means above about -30%;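 also: stimulus is agonist 54-4 at its EC80 concentration; % is scaled to controls: 0 for no effect and ±100 for the full control effect; the text of the record puts the active cut at -80%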
Target sequence (Q9GZU1 whole entry, looked up): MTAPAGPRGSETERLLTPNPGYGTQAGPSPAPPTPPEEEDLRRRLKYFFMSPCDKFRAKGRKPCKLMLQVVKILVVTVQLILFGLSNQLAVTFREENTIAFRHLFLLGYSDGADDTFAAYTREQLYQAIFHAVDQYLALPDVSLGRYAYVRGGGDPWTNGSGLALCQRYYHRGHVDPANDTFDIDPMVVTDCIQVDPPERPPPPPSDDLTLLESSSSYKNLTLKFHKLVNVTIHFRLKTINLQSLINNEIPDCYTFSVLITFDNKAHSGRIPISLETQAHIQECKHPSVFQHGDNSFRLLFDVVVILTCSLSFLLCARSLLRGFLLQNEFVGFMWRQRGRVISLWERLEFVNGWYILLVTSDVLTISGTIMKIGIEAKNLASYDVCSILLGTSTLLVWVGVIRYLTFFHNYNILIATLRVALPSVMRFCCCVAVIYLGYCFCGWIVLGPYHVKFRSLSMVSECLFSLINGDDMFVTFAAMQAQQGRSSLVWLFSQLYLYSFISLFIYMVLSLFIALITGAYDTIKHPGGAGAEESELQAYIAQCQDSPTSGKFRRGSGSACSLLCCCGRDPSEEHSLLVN
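TRPML1-DL cells, Tet-induced overnight (~16 h, 37 °C) at 1,500 cells/well, were loaded with Ca8 no-wash dye plus quencher for 45-90 min at room temperature. Compounds were pinned during FDSS kinetic reading; agonist 54-4 at EC80 (4 uM final) then added.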
D2 ag: human D2 receptor agonism in beta-arrestin assay; DiscoveRx PathHunter D2 beta-arrestin, luminescence, 90 min; 100% = 57 uM dopamine signal; activation, % (concentration not given with the values); P14416; 0.084% of 360,000 active; in the data active = activation above about 40%; inconclusive = about 15% to 40%; inactive = below about 15%; also: compound concentration not given in the record; the text of the record calls up to 30% inactive
Target sequence (P14416 whole entry, looked up): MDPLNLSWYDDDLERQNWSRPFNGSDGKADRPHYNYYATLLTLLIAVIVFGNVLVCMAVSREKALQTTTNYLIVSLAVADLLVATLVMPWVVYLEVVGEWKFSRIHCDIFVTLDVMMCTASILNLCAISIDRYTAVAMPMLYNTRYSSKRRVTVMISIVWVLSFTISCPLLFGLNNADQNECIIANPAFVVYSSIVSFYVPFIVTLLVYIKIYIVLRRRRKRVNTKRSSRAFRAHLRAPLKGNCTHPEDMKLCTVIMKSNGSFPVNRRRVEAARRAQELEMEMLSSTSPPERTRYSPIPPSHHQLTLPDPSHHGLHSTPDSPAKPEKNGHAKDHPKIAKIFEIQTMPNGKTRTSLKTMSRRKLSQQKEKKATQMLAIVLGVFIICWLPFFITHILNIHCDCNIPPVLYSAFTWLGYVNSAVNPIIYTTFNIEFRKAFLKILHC
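DiscoveRx PathHunter D2 beta-arrestin cells (2,100/well) attached overnight, then compound-stimulated 90 min at 37 C in HBSS/10 mM HEPES/0.1% Tween-20 buffer; beta-galactosidase complementation read by luminescence after 1 h at ambient temperature. Dopamine 57 uM final (EC100) as control.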
Six1-Eya2 blk: inhibitors of human Six1/Eya2 interaction | 0.56% of 360,000 active | AlphaScreen GST-Six1/His-Eya2 binding, biochemical; active compounds read low; control for the full effect not named in the record | AID 651725 | activity change, % (no concentration beside the values) | Q15475+O00167; in the data active = activity change below about -65%; inconclusive = about -30% to -65%; inactive = above about -30%; also: % is scaled to controls: 0 for no effect and ±100 for the full control effect
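Six1/Eya2 binding was read as AlphaScreen signal after compounds were pinned into GST-Six1 plus His-tagged Eya2 (5X stock 250/500 nM) in pH 8.0 Tris/NaCl/TCEP buffer, beads added, then incubated 1 h, 37 C, dark.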
PINK1 modulator: modulators of PINK1 expression. PINK1 immunofluorescence, high-content cytometry, 24 h. AID 624263. Potency, µM (series often up to 76.6 µM), for inactives: at the top dose activation (PINK1 increase), most hits filed as activators. 0.2% of 410,000 active; active = well fitted activation curve with a large enough effect; inconclusive = small, poorly fitted or top-dose-only effect; inactive = flat fitted curve, though single readings scatter; cell line not stated here;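 also: potency is read from the fitted curve at half-maximal effect; % of control where 0% means no effect; nearly all actives have a fitted effect of over 65% in size; a mitochondrial uncoupler was the plate control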
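Readout is PINK1 immunofluorescence, quantified alongside mitochondrial, cell and nuclear markers by laser-scanning microplate cytometry. Cells from a stable line were exposed to compound titrations (5 concentrations) for 24 hours, with CCCP controls.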
TRPML1 ag: activates the human TRPML1 channel | Q9GZU1 | TRPML1-expressing cells, Ca2+ dye fluorescence, FDSS; host cell line not named in the record; reference of the full effect not given here | activation, % (concentration not given with the values) | 0.12% of 410,000 active | AID 624414; in the data active = activation above about 50%; inconclusive = about 30% to 50%; inactive = below about 30%; also: 0% is about no effect; the text of the record puts the active cut at 80%
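TRPML1-DL cells, Tet-induced overnight (~16 h, 37 degrees C), loaded 45-90 min at room temperature with Ca8 no-wash calcium dye plus quencher. FDSS fluorescence: 10 s baseline, compound pin-transfer, 110 s agonist read, then EC80 54-4 (4uM final) and 110 s antagonist read.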
D2 PAM: positive allosteric modulators of human D2 dopamine receptor; potentiation, % (test concentration not listed); DiscoveRx D2 beta-arrestin cells, luminescence, 90 min; 100% = 57 uM dopamine signal; 0.23% of 360,000 active; P14416; active = potentiation of 50% or more; inconclusive = 30% to 50%; inactive = 30% or less;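 also: compound concentration not given in the record; tested on top of an EC20 dose of dopamine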
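PathHunter beta-arrestin assay in DiscoveRx D2 cells. Compounds were added with an EC20 of dopamine (50 nM final) for 90 min at 37 deg C. Luminescence was read 1 h after detection reagent, with 57 uM dopamine as the EC100 control.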
Starred values were filed as active, the others as inactive; ? = inconclusive; / = not tested or not shown; & = joins results of further samples; [ ] = dose if it differs, or a comment.

Preview (5 entries):
SMILES	TRPML1 blocker	D2 ag	Six1-Eya2 blk	PINK1 modulator	TRPML1 ag	D2 PAM
Cc1nn(S(=O)(=O)c2cccc([N+](=O)[O-])c2)c(C)c1S(=O)(=O)N1CCOCC1	48	3.6	5	-1.0%	0.2	2
Cc1ccc(Oc2ccc(/C=N/O)cn2)cc1	-3	-2.5	-3	-0.3%	-0.7	-17
c1ccc2cc(CSCc3nc4ccccc4[nH]3)ccc2c1	8	-2.0	?	?	0.1	-2
C=CCOc1ccc(/C=C2\SC(=S)N(NS(=O)(=O)c3ccccc3)C2=O)cc1	-6	2.9	2	0.6%	0.7	-9
O=C(Cn1nnc(-c2ccccc2)c1COc1ccc2ccccc2c1)NCC1CC1	/	2.6	-15	11%	-0.4	-8

Results, from the start:
SMILES	TRPML1 blocker	D2 ag	Six1-Eya2 blk	PINK1 modulator	TRPML1 ag	D2 PAM
Cc1nn(S(=O)(=O)c2cccc([N+](=O)[O-])c2)c(C)c1S(=O)(=O)N1CCOCC1	48	3.6	5	-1.0%	0.2	2
Cc1ccc(Oc2ccc(/C=N/O)cn2)cc1	-3	-2.5	-3	-0.3%	-0.7	-17
c1ccc2cc(CSCc3nc4ccccc4[nH]3)ccc2c1	8	-2.0	?	?	0.1	-2
C=CCOc1ccc(/C=C2\SC(=S)N(NS(=O)(=O)c3ccccc3)C2=O)cc1	-6	2.9	2	0.6%	0.7	-9
O=C(Cn1nnc(-c2ccccc2)c1COc1ccc2ccccc2c1)NCC1CC1	/	2.6	-15	11%	-0.4	-8
O=C1C=CC(=O)N1Nc1ccc(Br)cc1	2	-4.1	20	0.1%	-0.1	-4
CC(O)[C@H]1CNC(=O)C(=O)N1CCCCC1CCCCC1 (stereo not given in full)	3	-0.2	0	0.8%	-0.3	-8
N#CC1=C(N)OC2=C(CCc3ccccc32)C1c1ccccc1 (stereo not given)	-3	4.1	2	-2.2%	0.8	-9
CCCN(CCC)C(=O)c1c[nH]c2ccc(S(=O)(=O)N(C)c3ccc(OCC)cc3)cc2c1=O	44	/	/	-0.9%	0.8	/
CCCn1nnnc1SCC(=O)NCc1ccccc1	-1	-2.3	-13	0.5%	-0.7	-4
CC(=O)c1cc2c(cc1NC(=O)c1cccc(S(=O)(=O)N3CCN(C)CC3)c1)OCO2	-5	-0.4	-17	5.9%	-0.4	-4
COc1ccc(CNC(=O)c2ccc(NC(=O)C3=CSCCO3)cc2)cc1	-5	2.4	19	3.1%	0.5	-1
O=C(Cn1cc(C(=O)c2ccccc2)c(=O)c2cc3c(cc21)OCCO3)Nc1ccc(F)c(F)c1	13	/	/	2.7%	1.1	/
COC(=O)CSc1nnc(-c2cccc(NC(=O)c3ccc(C)cc3)c2)n1C	59	-3.3	-5	-0.1%	1.0	-14
Cc1ccc(S(=O)(=O)Nc2nc3ccc(S(=O)(=O)N4CCCC4)cc3s2)cc1	11	-0.9	-1	-2.3%[38.3 µM]	0.9	1
COC(C(=O)N/N=C(\C)c1ccc(C(C)(C)C)cc1)c1ccccc1 (stereo not given)	36	2.6	-21	4.1%	2.5	-9
O=C(CN1C(=O)c2ccccc2S1(=O)=O)c1ccc(F)cc1	8	-2.5	-2	1.1%	0.7	-2
COc1ccc(CNC(=O)C2CCN(S(=O)(=O)c3c(C)noc3/C=C/c3ccccc3F)CC2)cc1	14	/	/	-1.0%	0.8	/
COc1ccc(CN2CCNC(=O)C2CC(=O)NCCc2c[nH]c3ccccc23)c(OC)c1 (stereo not given)	-14	-5.0	-4	-2.9%	-1.7	-8
CCOCC(=O)Nc1ccccc1C(=O)O	0	-20	23	-0.9%	0.1	-13
C=CCOC(=O)CC(NC(=O)c1ccccc1)c1ccccc1 (stereo not given)	11	-6.0	4	2.1%	-0.1	-6
COC(=O)c1c(NC(C)=O)sc(C(=O)Nc2ccccc2F)c1C	-3	-2.0	2	2.3%	0.7	-2
CC1CCN(C(=O)CSc2nc3ccccc3nc2Cc2ccccc2)CC1	77	/	/	2.0%	1.3	/
CCOc1ccccc1C(=O)Oc1ccc2ccc(=O)oc2c1	11	-3.7	0	1.9%	2.9	-3
COc1cccc(Cn2nc(SC)c(S(=O)(=O)c3ccccc3)c2N(C(C)=O)C(C)=O)c1	19	/	/	3.6%	-0.2	/
Cc1nc2sc3c(c2c(=O)n1/N=C/c1ccco1)CCCC3	-3	0.6	1	1.2%[38.3 µM]	-0.2	-4
C1=C(CCNC2=NCCCCC2)CCCC1	-20	-2.7	-2	-2.3%	-0.3	-6
Cc1ccccc1S(=O)(=O)c1c(C)cc(C)n(CC(C)C)c1=O	-4	-3.1	20	1.4%	10	-2
CCCCC(CC)CNC(=O)c1cccs1 (stereo not given)	-18	-0.4	10	/	0.9	-8
COc1nc(Oc2ccc(=O)[nH]n2)nc(N2CCOCC2)n1	-7	-1.6	5	-1.0%[38.3 µM]	0.6	1
CCCNC(=O)CSc1c(CCC)cnc2c1c(=O)n(C)c(=O)n2C	-12	/	/	1.2%	-0.4	/
CC(=O)N/C(=C\c1ccccc1)C(=O)OC/C=C/c1ccccc1	5	-6.8	8	0.0%	1.9	-16
CC(NC(=O)c1ccco1)c1nc(-c2ccc(Cl)cc2)no1 (stereo not given)	-5	-1.2	-3	-0.5%	-0.8	-1
CCOc1cc(Br)c(CN2C(=O)NC3(CCCCCC3)C2=O)cc1OCC	-1	1.1	-10	2.0%	0.4	5
C=CCNC(=O)C1CC2Cn3c(nc4ccccc43)C2N1C (stereo not given)	-2	1.0	-4	-0.6%	-0.8	-3
Cc1cc(=O)oc2cc(OCC(=O)OCC(=O)NC(C)C)ccc12	-2	-6.2	-17	1.4%	-0.8	-23
CC1CC(=O)Nc2ccccc2N1C(=O)CN1CCN(c2ccccc2)CC1 (stereo not given)	2	1.4	-6	-0.4%	1.7	-9
Cc1ccnc2nc(C(=O)OCC(=O)c3ccccc3)nn12	1	0.9	4	1.8%	-0.5	-6
COc1cc(SC)ccc1C(=O)OC(C)C(=O)NC1CCCC1 (stereo not given)	2	-2.0	5	0.5%	0.5	-3
CCn1c(SCC(=O)Nc2ccc(C(C)=O)cc2)nc2ccccc21	5	0.8	-1	0.9%[38.3 µM]	1.7	-7
COc1ccc(N/C(N)=N/c2nc(CSc3nnc(C)s3)cc(=O)[nH]2)cc1	7	-1.3	10	1.9%	-0.6	-3
CCCC(=O)Nc1c2c(nn1-c1cccc(Cl)c1)CS(=O)(=O)C2	40	-3.1	4	0.0%	-1.0	-2
CCCOc1ccc(C2C(=O)N(C3CCC(C)CC3)CC(=O)N2Cc2cccc(OC)c2)cc1OC (stereo not given)	-7	/	/	0.6%	0.8	/
CN1CCN(S(=O)(=O)c2cc([N+](=O)[O-])ccc2N2CCCCCC2)CC1	8	-2.1	-10	-1.3%	-0.6	-3
CCN(CC)C(=O)CSc1nnc(COc2ccccc2)n1CC	2	-3.2	1	0.6%	-0.8	1
COc1cccc(=O)c2c(C)n(C)c(C)c12	-20	-5.2	-18	-2.8%	0.0	-11
CC(=O)N(CCCN(C)C)CCC(C)CCC=C(C)C (stereo not given)	-2	0.2	0	/	1.3	-7
O=C(C(O)c1ccc(Br)cc1)N1CCC(Nc2ccc3[nH]ncc3c2)CC1 (stereo not given)	/	?	-2	2.2%	1.0	8
CC(C)(C)NC(=O)CCn1nc(-c2ccc(Cl)cc2)c2ccccc2c1=O	-10	-8.0	-1	0.6%	2.4	-9
Cc1cccc(N2C(=O)N3[C@H](c4ccc(Cl)cc4)[C@@H]4C(=O)N(C5CCCCC5)C(=O)[C@@H]4[C@]3(Cc3ccc(Cl)cc3)C2=O)c1	8	-1.3	-6	1.8%	0.3	-58
CCOC(=O)COc1ccc(S(=O)(=O)Nc2ccc(C)cc2)cc1	-13	-1.1	-1	-0.6%[38.3 µM]	0.2	-6
Cc1ccc(S(=O)(=O)NC2c3cccc4cccc(c34)C2Sc2n[nH]c(N)n2)cc1 (stereo not given)	13	-7.4	-11	-0.1%	2.4	-44
Cc1cc(Br)ccc1NC(=O)CN(C)C(=O)CCSc1ccc(F)cc1	-11	-3.4	9	?	-0.3	-18
CCOc1ccccc1NC(=O)Cn1cnc2c(cnn2-c2ccc(C)c(C)c2)c1=O	6	-0.2	0	3.1%	0.0	-2
CCOc1ccccc1NC(=O)CSc1nnc(-c2cnccn2)n1C	18	0.7	3	/	-0.2	2
COc1ccc(-c2nn(-c3ccccc3)cc2/C=C/C(=O)OCC(=O)Nc2ccccc2C#N)cc1	-5	-5.2	57	17%	0.7	-5
Cc1ccc(-c2nc(C#N)c(NCCCn3ccnc3)o2)cc1	-13	-4.4	-2	-0.3%	1.9	-6
COc1cc(CNc2ccc3[nH]c(=O)[nH]c3c2)ccc1OCc1ccc(F)cc1Cl	-4&-2	1.3	-14	?	-0.9&-0.9	-4
CCN1CCN(C(=O)c2ccc(C)c(S(=O)(=O)Nc3cccc(C)c3)c2)CC1	5	-6.6	0	2.2%	-0.2	-56
O=C(CSc1nc2ccccc2s1)N1CCOCC1	19	-0.5	3	0.4%[38.3 µM]	3.0	4

The list goes on.
SMILES	TRPML1 blocker	D2 ag	Six1-Eya2 blk	PINK1 modulator	TRPML1 ag	D2 PAM
CCOC(=O)C1CCCN(Cc2cccc(Cl)c2)C1 (stereo not given)	0	-1.5	3	8.5%[38.3 µM]	3.9	-19
Cc1ccc(CNC(=O)C2CCN(S(=O)(=O)N3CCC4(CC3)OCCO4)CC2)cc1	-15	-0.3	0	1.6%	0.1	-18
C/C(CC(=O)N1CCN(C=O)CC1)=N\NC(=O)c1ccc(Br)cc1	-1	-1.8	-12	-2.5%	1.0	-9
CCOC(=O)c1nnc(-c2ccccc2)nc1NCc1ccccc1	-23	-0.1	-10	3.8%[38.3 µM]	0.6	-4
O=c1[nH][nH]c(-c2ccccc2O)c1C(C[N+](=O)[O-])c1cccc(Cl)c1 (stereo not given)	29	1.1	-3	0.7%	-0.7	-4
Cc1ccc(/C=C/C(=O)O)cc1S(=O)(=O)NCC1CCCO1 (stereo not given)	6	0.2	4	0.5%	-0.7	-3
CN(C)S(=O)(=O)c1cccc(C(=O)NC2CCCc3ccccc32)c1 (stereo not given)	-7	-1.2	-8	0.4%	0.4	2
Cc1cccc(N2C(=O)CSC23C(=O)N(C)c2ccccc23)c1 (stereo not given)	0	/	/	1.1%	2.4	/
O=C1C2C3C=CC(C3=C3CCCCC3)C2C(=O)N1Cc1ccccc1 (stereo not given)	-6	2.4	4	-0.4%[38.3 µM]	5.7	4
CN(C)CC(C)(C)CNC(=S)Nc1cc(S(=O)(=O)N2CCOCC2)ccc1Cl	1	-1.4	-10	-0.3%	-0.2	-6
Cc1ccc(Sc2c(C)nn(C(=O)COc3ccc(F)cc3)c2C)cc1	-14	/	/	0.7%	3.1	/
O=c1ccn(Cc2ccccc2)c(=O)n1Cc1ccccc1	-22	-3.9	9	6.5%	0.2	-19
COc1ccc(Nc2nc(NCc3ccco3)nc(N3CCOCC3)n2)cc1	9	0.4	-17	1.6%	2.5	-2
